# Screening data from PubChem BioAssay.
# CSC inhib: cancer stem cell inhibition | cancer stem cell-like cells viability, luminescence | inhibition, % at 7.5 µM | 1.1% of 300,000 active | AID 2717;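 active = mean at 75% or more and at least half the replicates too; inconclusive = mean and replicates disagree; tested in HMLE shEcad cells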;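 note: 0% = median of negative and 100% = median of positive control wells; the first replicate is given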
# PABP polyA inh: blocks human PABP binding to poly(A) RNA; AID 2014; inhibition, % at 35 µM; P11940; 1% of 290,000 active; fluorescence polarization;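 active = 50% or more with normal probe brightness, or confirmed in later tests; inconclusive = above 50% with abnormal brightness, or retests that disagree; inactive = below 50% or failed in later tests; about a fifth of its hits are not listed in these tables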;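 note: calls also rest on retests at 20 µM and on dose response follow-up; controls were probe without protein and protein plus probe with vehicle; some compounds called inactive have numbers as strong as hits; many hits fall short of the cut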
# eIF4H inh: inhibitors of RNA binding by human eIF4H; Q15056; eIF4H fluorescence polarization binding assay; inhibition, % at 35 µM; 0.94% of 290,000 active; AID 2012;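 active = 50% or more with normal probe brightness, or confirmed in later tests; inconclusive = above 50% with abnormal brightness, or retests that disagree; inactive = below 50% or failed in later tests; about a fifth of its hits are not listed in these tables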;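 note: calls also rest on retests at 20 µM and on dose response follow-up; 0% = protein and probe with vehicle and 100% = probe without protein; strong numbers were not always called active; many hits fall short of the cut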
# UUG fidelity: alters start codon recognition fidelity in yeast; AID 602363; S. cerevisiae UUG-firefly luciferase reporter, luminescence/redox ratio; activity score, % at 18.7 µM; 0.13% of 350,000 active;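 active = replicate mean at a twofold rise or more, about +100% in these data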;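 note: firefly luciferase made from a UUG start codon reports start codon fidelity; reporter light over untreated wells divided by growth signal over untreated wells; some hits fall short of that in this replicate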
# MT1-MMP act inh: inhibitors of human MT1-MMP activation; P50281; HT1080 RFP-PRO-GFP cells, GFP/RFP ratio fluorescence, overnight; percent of plate control window, DMSO zero; GFP/RFP ratio change, % at 20 µM; 0.061% of 360,000 active;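 active = GFP/RFP ratio change of at least 30% with cell ATP level not reduced by more than half and red fluorescence within 50% of control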; note: strong numbers were not always called active
#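 Assay system: HT1080 RFP-PRO-GFP cells. Benchmarks: DMSO vehicle wells and RFP-L50D-GFP reporter cell wells. Times: overnight cell settling, then overnight compound exposure, 37 °C, 5% CO2. Compound: 20 µM single dose, 1% DMSO. Read-out basis: GFP/RFP fluorescence ratio.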
# Env fusion inh: inhibitors of HIV Env-mediated cell fusion. AID 651610. inhibition, % at 12.3 µM. 1.1% of 360,000 active. HeLa-JRFL Env/CEM21 cell fusion, luciferase;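 active = mean replicate inhibition score of at least 50 and every replicate individually at or above 50; inconclusive = only one of the two criteria met; inactive = mean below 50 and not all replicates reaching 50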;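 note: 0% = plate neutral controls and 100% = maraviroc near 300 nM; one replicate is shown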
# Rce1 inhib: yeast Ras-converting enzyme inhibition; 0.27% of 290,000 active; yeast membranes, quenched prenylated peptide cleavage fluorescence; Q03530; calls only;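 active = fall in fluorescence gain of 50% or more versus controls, with final raw signal at or below 3038400; inconclusive = same 50% fall but final raw signal above 3038400; inactive = fall in fluorescence gain under 50%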;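 note: plate controls were neutral control wells for no effect and wells lacking membranes for full effect; tested at 10 µM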
# Target sequence (Q03530 whole entry, looked up): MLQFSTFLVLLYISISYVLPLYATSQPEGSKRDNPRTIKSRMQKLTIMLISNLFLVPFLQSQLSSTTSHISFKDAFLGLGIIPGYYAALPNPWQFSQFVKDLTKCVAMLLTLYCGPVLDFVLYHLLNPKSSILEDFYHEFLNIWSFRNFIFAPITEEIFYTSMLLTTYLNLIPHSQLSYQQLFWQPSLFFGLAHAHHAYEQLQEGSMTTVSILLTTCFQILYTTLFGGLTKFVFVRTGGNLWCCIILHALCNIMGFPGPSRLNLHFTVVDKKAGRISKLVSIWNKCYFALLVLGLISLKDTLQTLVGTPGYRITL
# MT1-MMP act inh RFP: also measured in MT1-MMP act inh; calls as there; RFP signal change, %; measured here: RFP expression control read;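 0 = vehicle wells; hits needed this value within 50% of zero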
# * hit, by the source's call; i = inactive; ? = inconclusive; · = no result given; & = joins results of further samples; [ ] = another dose, or the depositor's remark.
compound,Env fusion inh,CSC inhib,MT1-MMP act inh,MT1-MMP act inh RFP,UUG fidelity,PABP polyA inh,Rce1 inhib,eIF4H inh
CCOC(=O)CC(NC(=O)Cc1ccc(F)cc1)c1ccccc1Cl (centres undefined),12,-10,2,4,·,-5,i,-6
COc1ccc2cc(C3CC(c4ccco4)=NN3S(C)(=O)=O)c(Cl)nc2c1 (centres undefined),6,0,-5,0,13,22,i,19
O=C(O)[C@H]1CCC(=O)N1Cc1ccco1,23,7,4,6,-18,0,i,-8
CCCCCCN1C[C@H](n2cc(-c3ccc(F)cc3)nn2)[C@@H](O)C[C@@H]1c1ccc(OC)cc1,14,·,3,4,-4,·,·,·
Cc1ccc(CNC(=O)C2CC3Cn4c(nc5cc(Cl)c(Cl)cc54)C3N2C)o1 (centres undefined),0,0,-3,1,-12,-3,i,-2
Cc1cc2cc(CCNC(=O)c3ccc(S(=O)(=O)N4CCCC4)cc3)c(=O)[nH]c2cc1C,12,-2,5,-5,-14,-9,i,-5
COc1ccc(NC(=O)CCC(=O)OC(C(=O)c2ccccc2)c2ccccc2)cc1 (centres undefined),-28,-15,2,2,-3,3,i,-5
CN1C(=O)N(C)C2(c3ccccc3)NNC(N)=NC12c1ccccc1 (centres undefined),-1,2,2,2,-16,3,i,-2
O=C(COC(=O)c1ccccc1F)NCc1ccc2c(c1)OCO2,·,-3,-2,3,-23,·,·,·
CC(=O)n1cc(N(C(=O)CCl)c2ccccc2)c2ccccc21,-7,23,-11,-17,-1,2,i,-2
FC(F)(F)c1cc(Oc2ccc(Cl)cc2)nc(-c2ccccn2)n1,-43,5,0,2,3,-2,i,-7
CC(C)(C)c1[nH]nc2c1C(c1ccoc1)C(C#N)=C(N)O2 (centres undefined),·,·,-5,2,-19,-5,i,-12
COc1cc(NC(=O)CC(C)S(=O)(=O)c2cc3c(cc2C)NC(=O)CO3)cc(OC)c1OC (centres undefined),4,-7,-2,-1,-11,4,i,0
O=C(Cn1cnc2c(oc3nc4c(cc32)CCCC4)c1=O)Nc1ccccc1,-6,-3,1,0,-4,6,i,11
Nc1nc(-c2ccco2)cs1,·,·,4,10,-28,66*,i,79*
COC(=O)NC1(C(F)(F)F)C(=O)NC(C)=C1C(=O)OC (centres undefined),·,-1,-5,0,-15,-10,i,-4
CCCCn1c(N)c(N(CCOC)C(=O)c2cc(-c3ccccc3Cl)nc3ccccc23)c(=O)[nH]c1=O,-25,0,-2,0,·,·,i,·
O=C(NC(=S)Nc1ccc(Cl)cc1)c1ccccc1,-64,10,3,5,-16,31,i,2
COc1ccc(C2C(C#N)=C(C)NC3=C2C(=O)CC(C)(C)C3)cc1 (centres undefined),-40,2,-3,-2,10,1,i,1
Oc1ccc(Br)cc1-c1cc(-c2ccco2)[nH]n1,·,32,8,8,-13,-1,i,-6
O=S1(=O)NC(c2ccccc2)CC(CC2CCCCC2)O1 (centres undefined),3,43,0,-4,3,-7,i,4
CC1CC(NC(=O)CCn2c(=O)oc3ccccc32)CC(C)(C)C1 (centres undefined),·,-4,1,1,1,-4,·,0
CCOC(=O)C(=CNc1cccnc1Oc1ccc(C)c2c1CCC2)C(=O)OCC,30,28,-7,-12,·,-10,i,1
COC(=O)c1nn(-c2nc(-c3ccc(OC)c(OC)c3)cc(C(F)(F)F)n2)cc1[N+](=O)[O-],7,-4,-2,-2,·,-5,i,-11
COc1ccc(-c2nn(C)c(=O)c3ccccc23)cc1CNC(=O)c1ccco1,·,-2,2,4,10,-5,i,4
CCOC(=O)c1cc(=O)n(Cc2ccccc2C)c2ccccc12,·,-6,-10,-6,-4,-4,i,-5
C=CCn1c(SCC(=O)c2[nH]c(C)c(C(=O)OCC)c2C)nc2scc(-c3ccc(OC)cc3)c2c1=O,3,·,-9,-17,·,-1,i,-6
Cc1ccc(C2SCC(=O)N2Cc2cn3ccsc3n2)o1 (centres undefined),·,4,-2,2,-22,26,i,6
CC1CCCCC1NC(=O)CSc1nnc(COc2ccc(Cl)cc2)o1 (centres undefined),8,0,4,2,-21,21,·,-14
Cc1ccc(S(=O)(=O)NCCN2CCOCC2)cc1C,·,·,2,2,-24,-4,·,0
COC(=O)CCC/C=C1/SCC(NC(=O)c2ccccc2)C1=O (centres undefined),·,4,-1,6,·,3,i,11
COc1ccc(Nc2cc(C)c3ccc(O)cc3n2)cc1,4,33,1,-7,·,-1,i,-5
COc1ccc(OC)c(S(=O)(=O)N2CCC(C(=O)NCc3cccnc3)CC2)c1,0,-7,1,2,-7,10,i,0
Cc1c(CC(=O)O)c(=O)oc2c(C)c(OCc3c(F)cccc3Cl)ccc12,13,-15,-3,-3,-22,8,i,1
CCCCOc1ccc(C(=O)OCC(=O)N2CCOCC2)cc1,3,-8,2,-3,-2,-4,i,3
COc1ccc(NC(=O)N(C)C[C@H]2Oc3ccc(NC(=O)C4CC4)cc3C(=O)N([C@H](C)CO)C[C@@H]2C)cc1,1[16.7 µM],-8,·,·,0&-1,·,·,·
Cn1cc([N+](=O)[O-])c(C(=O)Nc2nccs2)n1,23,27,-15,-11,·,4,i,1
COC(=O)c1ccccc1NC(=O)c1ccc2c(c1)CC(C)O2 (centres undefined),-12,-13,-5,1,-11,-1,i,-7
CCC(CC)COC(=O)C1=C(C)NC(=O)NC1c1cccc([N+](=O)[O-])c1 (centres undefined),62*,0,-3,-10,-21,-1,i,-8
COC(=O)C1=C(C)C(c2cccs2)NC(=O)N1C (centres undefined),-14,-13,5,-1,-12,18,i,-4
COC(=O)N/N=C/c1cn(Cc2ccc(F)cc2)c2ccccc12,2,8,2,-10,·,1,i,-3
Cc1ccc(C)c(OCC(=O)O/N=C(\N)c2cccc([N+](=O)[O-])c2)c1,4,11,1,3,-20,1,i,6
Cc1c(N2C(=O)c3ccc(Br)cc3C2=O)c(=O)n(-c2ccccc2)n1C,-23,-12,-2,3,-11,2,i,-8
O=C(c1ccc(Cl)cc1)c1ccc(Oc2cc(NN3CCCCC3)c([N+](=O)[O-])cc2[N+](=O)[O-])cc1,6,10,8,0,-12,5,i,-4
COC(=O)CC(NC(=O)c1ccc(C)cc1)c1ccccc1 (centres undefined),·,-1,0,0,-27,-8,·,-4

# An excerpt from above with just eIF4H inh, Rce1 inhib and PABP polyA inh.
Compound	eIF4H inh	Rce1 inhib	PABP polyA inh
COC(=O)N/N=C/c1cn(Cc2ccc(F)cc2)c2ccccc12	-3	i	1
CCCCOc1ccc(C(=O)OCC(=O)N2CCOCC2)cc1	3	i	-4
O=C(c1ccc(Cl)cc1)c1ccc(Oc2cc(NN3CCCCC3)c([N+](=O)[O-])cc2[N+](=O)[O-])cc1	-4	i	5

# Additional structures follow:
compound,Env fusion inh,CSC inhib,MT1-MMP act inh,MT1-MMP act inh RFP,UUG fidelity,PABP polyA inh,Rce1 inhib,eIF4H inh
CSc1ncc(Sc2ccccc2)c(C(=O)O)n1,-1,-6,1,1,-18,·,i,·
CN(C)c1nc(Oc2ccc(=O)[nH]n2)nc(N2CCCCC2)n1,-33,-9,7,8,9,-1,i,-2
Cc1ccc(S(=O)(=O)N(Cc2cc3ccccc3[nH]c2=O)CC2CCCO2)cc1 (centres undefined),-2,0,2,-1,12,-14,i,0
O=C(NCc1ccccc1)c1ccc2c(c1)OCCO2,·,14,-3,2,-13,0,i,-5
NS(=O)(=O)c1cccc(NC(=O)COC(=O)CCSc2ccccc2)c1,-26,8,-8,2,-14,-4,i,0
Cc1csc(NC(=O)CSC2=NS(=O)(=O)c3cc(F)ccc3N2)n1,-6,-13,0,4,6,·,i,·
CC(C(=O)Nc1ccccc1C(=O)N1CCOCC1)N(c1ccc(Cl)cc1)S(C)(=O)=O (centres undefined),-8,0,-2,2,-1,-11,i,-3
Cc1ccc(CNC(=O)Nc2ccc(OC(F)(F)F)cc2)n1C,-8,10,-5,0,-11,12,i,2
CCN(C(=O)CN1CCN(S(=O)(=O)c2ccccc2C(F)(F)F)CC1)c1c(N)n(Cc2ccccc2)c(=O)[nH]c1=O,0,10,4,0,-5,5,i,-8
COc1ccc(Cc2nc3ccc(C(=O)NCCc4ccncc4)cc3o2)cc1OC,1,·,2,-5,-20,8,i,7
CCC1(c2ccccc2)NC(=S)N(c2cccc(C)c2C)N1 (centres undefined),-25,-8,-1,4,·,32,i,-4
COCCCNC(=O)c1ccc(NS(C)(=O)=O)cc1,·,·,3,2,-18,-3,i,2
COc1ccc(OC)c(NC(=O)Cn2nc(C)c3ccccc3c2=O)c1,1,-15,2,2,-31,-8,·,1
COc1cc(NS(=O)(=O)c2ccc(NC(=S)NC(C)=O)cc2)nc(OC)n1,11,-7,2,5,-16,·,i,·
Cc1oc2ccc(O)c(CN3CCOCC3)c2c1C(C)O (centres undefined),·,-3,0,4,·,8,i,-8
O=C(Nc1ccccc1C(=O)NC(Cc1ccccc1)C(=O)NC1CCCCCC1)c1ccccc1 (centres undefined),·,-5,-8,-12,-14,-1,i,3
COc1ccc(-c2c(-c3cc(OC)cc(OC)c3)n(C)c3ccc(-c4ccc(S(N)(=O)=O)cc4)cc23)cc1,10,2,-18,-7,1,·,·,·
COc1cc2c(cc1OC)CN(C(=O)Cc1c(F)cccc1Cl)CC2,15,-3,3,1,-13,20,i,1
Cc1ccc(S(=O)(=O)NC2=C(N3CCN(c4ccccc4F)CC3)C(=O)c3ccccc3C2=O)cc1,-5,6,9&0,0&-11,-12,39,i,10
CCOC(=O)N1CCN(C(=O)c2ccc(S(=O)(=O)NCc3ccco3)cc2)CC1,2,13,-3,-1,-1,23,i,10
Cc1ccc(NC(=O)c2cncc(Br)c2)c([N+](=O)[O-])c1,14,6,-7,-6,-2,-10,i,0
COc1ccc(Cl)cc1NC(=O)C(C)N1CCN(c2ccccn2)CC1 (centres undefined),14,6,0,-3,-8,5,i,-12
CC(C)[C@H](NC(=O)c1ccc(Cl)c([N+](=O)[O-])c1)C(=O)O,7,-1,-2,3,11,-4,i,-5
Cc1ccc2nc3c(c(C(=O)OCC(=O)NC4CCS(=O)(=O)C4)c2c1)CCCC3 (centres undefined),-3,-12,-1,-3,·,?,i,-4
O=C(NCCCN1CCOCC1)c1cn(-c2ccccc2)nc1-c1cccs1,·,-3,2,-1,11,6,i,-2
c1ccc(N2CC3CCc4ccccc4C3=N2)cc1 (centres undefined),-131,13,-1,-3,-20,-6,·,0
Cc1occc1C(=O)N1CCN(C(c2ccccc2)c2ccccc2)CC1,?,1,-16,-1,-14,6,i,16
CC(NC(=O)C(=O)N/N=C/c1ccccc1)c1ccccc1 (centres undefined),-6,0,0,-2,·,-3,i,19
O=c1cc(-c2ccccc2)c2cc3c(cc2[nH]1)OCCO3,-7,-5,-4,-5,·,4,i,4
COc1ccc(Cn2c(-c3ccccc3C)nc3c(c(=O)c4ccccc4n3C)c2=O)cc1,-5,-16,2,-7,-12,·,i,·
CCOC(=O)CN1C(=O)C2(OCCCO2)c2cc(Br)ccc21,-13,2,-3,2,-6,-4,i,-10

# An excerpt of these results, with two lines to a compound:
# Values in the order: Env fusion inh | CSC inhib | MT1-MMP act inh | MT1-MMP act inh RFP | UUG fidelity | PABP polyA inh | Rce1 inhib | eIF4H inh
> Cc1ccc(S(=O)(=O)NC2=C(N3CCN(c4ccccc4F)CC3)C(=O)c3ccccc3C2=O)cc1
→ -5 | 6 | 9&0 | 0&-11 | -12 | 39 | i | 10
> CCOC(=O)N1CCN(C(=O)c2ccc(S(=O)(=O)NCc3ccco3)cc2)CC1
→ 2 | 13 | -3 | -1 | -1 | 23 | i | 10
